# Choline anaer gr: growth inhibitors of anaerobic choline-fed gram-negatives, minimal medium, absorbance. Gram-negative bacterium anaerobic choline minimal medium; stronger effect = lower value; many inactives read as strong as hits in the columns shown. calls only. 0.2% of 55,000 active. AID 1963822, 2024;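 active means growth z-score on choline under -2 at 7 or 20 h with little or no fall on glycerol, limits in tiers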;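 further: stock transfer was 300 nL into about 50 µL; the organism is E. coli; final concentration not given here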
# Choline anaer gr early: also measured in Choline anaer gr; calls as there; z-score; measured here: choline growth z-score, timepoint 1;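 score of optical density at 7 h as mean of two plates; lower means less growth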
# The depositor's hits bear a star; i = inactive; + = active, no number; & = joins results of further samples. The list is partial; rates above refer to the full screens.
mol | Choline anaer gr | Choline anaer gr early
O=C1CN(Cc2ccc(F)cc2Cl)S(=O)(=O)c2ccccc2N1Cc1ccccc1 | i | -0.45
COc1ccc(-c2[nH]ncc2CN2CCCC2c2cc(C(C)C)on2)cc1 (stereo unspecified) | i | -0.62
COc1cccc(-c2csc(-c3c(N)c(C(=O)c4ccc(Cl)cc4)n4ccccc34)n2)c1 | i | -2
COc1ccc(C2CC(=O)Nc3c2sc(C(=O)O)c3-c2ccc(Cl)cc2)cc1OCC(N)=O (stereo unspecified) | i | -1.5
Cc1ccc(C)c(N2CCN(C(=O)C3CCN(c4ccc(N5CCOCC5)nn4)CC3)CC2)c1 | i | 1.2
CCc1onc(C)c1C1CCCN1C(=O)c1ccn(CC)n1 (stereo unspecified) | i | 0.93
CCN(Cc1ccccc1)c1ccc(C(=O)O)cc1NS(=O)(=O)c1ccc(C)cc1 | i | -0.04
O=C(Nc1cccc(-c2nc3ccccc3[nH]2)c1)c1ccc(S(=O)(=O)N2CCc3ccccc3C2)cc1 | i | 1
Cc1nn(-c2nc3ccccc3[nH]2)c2c1C(c1cccc(Br)c1)CC(=O)N2 (stereo unspecified) | i | -0.15
CCCNCc1cc(=O)n2[nH]c(NCc3ccc(Cl)cc3)nc2n1 | i | -0.23
O=S(=O)(c1ccc(Cl)cc1)N1CCc2nc[nH]c2C1 | i | -2.7
CCN(CC)S(=O)(=O)N1CCC(C(=O)NCCc2ccc(OC)c(OC)c2)CC1 | i | 0.34
CCCc1cc(C2CCCN2Cc2cc(F)ccc2F)no1 (stereo unspecified) | i | -2.5
CCCCN(C)S(=O)(=O)c1c[nH]c(-c2nnc(CC)o2)c1 | i | 0.25
CCOc1cc(C2CC(=O)Nc3c2sc(C(=O)O)c3-c2cccc(F)c2)ccc1OCC(N)=O (stereo unspecified) | i | -1.3
N#CC1=CN(c2ccc(I)cc2)c2ccccc2S1(=O)=O | i | -0.22
CN(C)C(=O)CN1C(=O)COc2ccc(C(=O)N3CCN(Cc4ccc5c(c4)OCO5)CC3)cc21 | i | 0.49
O=C(NCc1c(-c2ccc(Cl)cc2)nc2n1CCS2)c1ccc(F)c(F)c1 | i | 0.61
O=C(NCc1ccccc1Cl)c1ccc(CSc2nc3ccncc3[nH]2)cc1 | i | -0.65
CCCc1cc(C2CCCN2S(=O)(=O)c2ccc(Br)s2)no1 (stereo unspecified) | i | 0.18
CCn1cc(C(=O)NCC2CC2)c(S(=O)(=O)N2CCC(C)CC2)n1 | i | 0.5
Cc1cccc(N2CCN(c3ncc(C(=O)O)cc3NS(=O)(=O)c3cc(C)cc(C)c3)CC2C)c1 (stereo unspecified) | i | -0.15
CC1CCN(c2nc3[nH]c(=S)n(C(C)C)c(=O)c3s2)CC1 | i | 1.1
CCc1nnc(-c2ccc(S(=O)(=O)N3CCCC(C)C3)o2)o1 (stereo unspecified) | i | 0.09
CCOC(=O)c1cc(C)nc2c1c(=O)n(Cc1nc(-c3ccc(OC)cc3)oc1C)c(=O)n2C | i | 0.44
Cc1ccc2[nH]c(C(=O)NCc3ccccc3Cl)cc2c1 | i | 1.2
CC1CCCN(CC2CCN(S(=O)(=O)c3cc(F)cc(F)c3)CC2)C1 (stereo unspecified) | i | -0.48
Cc1nc(SCC(=O)Nc2nnc(C)s2)c2c(=O)n(C)c(=O)n(C)c2n1 | i | -1.4
O=S(=O)(c1ccc(F)c(Cl)c1)N1CC(OCc2ccc(F)cc2)C1 | i | 0.07
Cc1cc(C)cc(NC(=O)CCc2nc(CSc3nc4ccccc4o3)no2)c1 | i | 0.45
Cc1cc(C)c(NC(=O)c2[nH]c(C)c(S(=O)(=O)N3CCCC3)c2C)c(C)c1 | i | -0.61
C=C1C(CO)C(O)CC1n1cnc2c(=O)[nH]c(N)nc21 (stereo unspecified) | i | -0.91
Cc1cc(N2CCOCC2)n2nc(-c3ccccc3)c(C)c2n1 | i | 2.2
CC(=O)Nc1ccc(-c2noc(C3CCCN(C(=O)c4sccc4C)C3)n2)cc1 (stereo unspecified) | i | -1.5
O=C(c1nnc(-c2ccc(S(=O)(=O)N3CCCC3)cc2)o1)N1CCOCC1 | i | 0.15
Cc1ccc(C)c(N2CCN(c3cc(C)nc4c(-c5ccccc5)c(C)nn34)CC2)c1 | i | 2
O=c1c2cc3c(nc2ncn1CCN1CCOCC1)CCCC3 | i | 0.43
CC(C)Cc1ccc(S(=O)(=O)Nc2ccc3nc(N4CCN(C)CC4)cc(C(=O)O)c3c2)cc1 | i | -0.75
C=Cc1ccc(Cn2nc3n(Cc4ccc(C)cc4)c(=O)c4ccc(C(=O)NC(C)C)cc4n3c2=O)cc1 | i | -0.02
CCc1nc2ccc(C(=O)NCCc3ccc(OC)cc3)cc2nc1CC | i | -0.85
O=C(NCCc1ccc(Cl)cc1)c1cnc2sc(N3CCCCC3)nn2c1=O | i | 0.6
CC(=O)NCC(c1ccc(N(C)C)cc1)N1CCCC1 (stereo unspecified) | i | -0.1
O=C(NCc1ccccc1Cl)C1CCN(c2nn3c(=O)c4c(nc3s2)CCCC4)CC1 | i | -0.1
COc1ccccc1N1CCN(C(=O)CCn2cnc3ccccc3c2=O)CC1 | i | -0.34
CCCSc1nn(C)c2nc3c(c(=O)n12)C(C)(CC)Cc1ccccc1-3 (stereo unspecified) | i | 0.12
CN1C(=O)c2cc3ccccc3n2CC1(C)C(=O)NCC(=O)N1CCOCC1 (stereo unspecified) | i | -0.4
CN(C)CCCOc1nn(Cc2ccccc2)c2ccccc12 | i | -0.4&0.42&0.1
CCS(=O)(=O)c1nc2ccc(NS(=O)(=O)c3ccc(F)c(Cl)c3)cc2s1 | i | -0.38
O=S(=O)(c1ccc2c(c1)CCCC2)N1CCN(Cc2noc3ccccc23)CC1 | i | 0.87
CCN1CCN(C(=O)C2CCCCC2)c2cccnc21 | i | -0.83
c1ccc(-n2ncc3c(Nc4ccc5c(c4)OCO5)nc(N4CCCC4)nc32)cc1 | i | -0.02
CNC(=O)Cn1cnc2oc(C)c(C)c2c1=O | i | -0.51
O=C(NCc1cccc(Cl)c1)C1CCN(c2nc3ccccc3nc2C(F)(F)F)CC1 | i | 0.4
O=C(Cn1cc(-c2nnc(CN3CCCCC3)o2)c2ccccc21)NC1CCCCC1 | i | 0.71
Cn1c(-c2nnc(SCC(=O)N3CCCCC3)o2)cc2ccccc21 | i | -1.1
CC(C)C(=O)NCC(c1ccccc1Cl)c1c[nH]c2ccccc12 (stereo unspecified) | i | -0.92

# Exported as labelled records: part of the list above
O=C(Cn1cc(-c2nnc(CN3CCCCC3)o2)c2ccccc21)NC1CCCCC1
  Choline anaer gr = i | Choline anaer gr early = 0.71

Cn1c(-c2nnc(SCC(=O)N3CCCCC3)o2)cc2ccccc21
  Choline anaer gr = i | Choline anaer gr early = -1.1

# Given field by field: part of the list above.
> CCCSc1nn(C)c2nc3c(c(=O)n12)C(C)(CC)Cc1ccccc1-3 (stereo unspecified)
  Choline anaer gr: i	Choline anaer gr early: 0.12
> CCc1nnc(-c2ccc(S(=O)(=O)N3CCCC(C)C3)o2)o1 (stereo unspecified)
  Choline anaer gr: i	Choline anaer gr early: 0.09
> O=S(=O)(c1ccc(F)c(Cl)c1)N1CC(OCc2ccc(F)cc2)C1
  Choline anaer gr: i	Choline anaer gr early: 0.07
> Cc1cc(C)cc(NC(=O)CCc2nc(CSc3nc4ccccc4o3)no2)c1
  Choline anaer gr: i	Choline anaer gr early: 0.45

# More structures
mol | Choline anaer gr | Choline anaer gr early
Cc1ccc(S(=O)(=O)N2CCCC(c3nc(-c4ccc(Oc5ccccc5)cc4)no3)C2)cc1 (stereo unspecified) | i | 0.03
O=S(=O)(NCc1nc2cccnc2n1C1CC1)c1ccc(F)c(Cl)c1 | i | -1.2
COc1ncccc1S(=O)(=O)N1CCCCC1 | i | -0.25
CN(CCNc1ncnc2onc(-c3cccc(Cl)c3)c12)C1CCCCC1 | + | -3.8*
Cc1cc(N(CCO)CCO)n2nc(-c3ccc(C(C)(C)C)cc3)nc2n1 | i | 1.1
COc1cccc(C(=O)N2CCCN(c3ccc(=O)n(-c4ccc(C)c(C)c4)n3)CC2)c1 | i | 0.12
Cc1cc(NC(=O)C2CCN(S(=O)(=O)c3c(C)nn(-c4ccccc4)c3C)CC2)no1 | i | -0.57
Cc1cc(-c2nn3c(COc4ccc(Cl)cc4)nnc3s2)no1 | i | 0.21
COc1ccc(NC(=O)CCn2cnc3c(-c4ccc(C)cc4)noc3c2=O)cc1 | i | 0.08
Cn1nnc2c(Nc3ccc(Cl)cc3)ncnc21 | i | -1
Cc1nn(CC(=O)N2CCN(c3ccccc3)CC2)c(=O)c2cccn12 | i | 0.51
CCOc1ccc(NC(=O)C2CC3CSCN3C23C(=O)Nc2ccccc23)cc1 (stereo unspecified) | i | -1.3
Cc1ccccc1N1CC(=O)N(c2ccccc2C)CC1=O | i | -0.12
CNC(=O)NCC(c1ccc(F)cc1)c1c[nH]c2ccccc12 (stereo unspecified) | i | 0.25
Cc1ccc(-c2ccc(N3CCCC3)nn2)cc1S(=O)(=O)N1CCC(C)CC1 | i | -0.06
CC1CCN(C(=O)c2cnc3sccn3c2=O)CC1 | i | -0.53
CCc1cccc(C)c1NC(=O)C(C)Sc1nc2c(c(=O)[nH]1)CCCC2 (stereo unspecified) | i | 1.2
c1cc2c(cc1-c1noc(C3CC3)n1)ncn2CCN1CCCCC1 | i | -0.88
Cc1ccc(OCC(=O)NCCc2sc(-c3ccc(Cl)cc3)nc2C)cc1 | i | 0.98
O=C(c1ccccc1F)N1CCC(c2nc(-c3ccc(S(=O)(=O)N4CCCC4)cc3)no2)CC1 | i | 0.36
CC1(C(=O)NCc2ccc(F)cc2F)CCN(C(=O)c2ccc3c(c2)OCO3)CC1 | i | 0.02
COc1ccc(-c2noc(Cc3nc(-c4ccc(Br)cc4)cs3)n2)c(OC)c1 | i | -0.2
CCCc1c(C)nc2ncnn2c1Sc1ccccc1NC(=O)Nc1ccc(Cl)cc1 | i | 0.78
C(=C1\CCCC2=C1Nc1nnnn1C2c1ccccc1)/c1ccccc1 (stereo unspecified) | i | 0.48
COc1ccc(S(=O)(=O)Nc2ccc(C3(C(=O)NCCC(C)C)CC3)cc2)cc1 | i | 0.07
CCOC(=O)c1nc(Nc2cccc(Br)c2)c2c(C)noc2n1 | i | -0.7
COc1ccc(NC(=O)CSc2nnc3c4sc(N5CCCC5)nc4ncn23)cc1 | i | -0.01
CC1O[C@@H](OC2C(Oc3cc(O)c(C(=O)CCc4ccc(O)cc4)c(O)c3)OC(CO)C(O)C2O)C(O)C(O)C1O (stereo partly specified) | i | 0.23
Cc1c(N2CCC(C(=O)N3CCCCC3)CC2)c(=O)n(C)c(=O)n1-c1ccccc1 | i | 0.81
CC(C)c1cc(C2CCCN2C(=O)Nc2ccccc2Br)on1 (stereo unspecified) | i | 0.22
CCCCNc1cc(C)nc2c(-c3ccc(F)cc3)cnn12 | i | -0.27
CN(C)C(=O)c1ccc2c(c1)N(CC(=O)N1CCc3ccccc3C1)C(=O)CO2 | i | 0.14
Cn1c(=O)c(-c2noc(CCC(=O)NC3CC3)n2)nn(-c2ccc(F)cc2)c1=O | i | -0.29
CC(=O)N1c2ccccc2NC2=C(C(=O)CC(c3ccccc3)C2)C1c1ccc(C)cc1 (stereo unspecified) | i | 0.48
O=C(NC1CCCc2ccccc21)C1CCN(c2cc(-c3ccccc3)ncn2)CC1 (stereo unspecified) | i | 0.15
COc1ccc(CCN2CN=C(NS(=O)(=O)c3ccc(C)cc3)NC2)cc1OC | i | 0.56
CCOc1ccccc1NC(=O)Cn1nc2c3sc(N(C)C)nc3ncn2c1=O | i | -1.8
COc1ccc(C2CC(=O)C3=C(C2)Nc2onc(C)c2C3c2ccc(F)cc2)cc1OC (stereo unspecified) | i | -0.15
CCOC(=O)c1[nH]c(C)c(CN(C(=O)Nc2ccc(OC)cc2OC)C2CCCCC2)c1C | i | 0.24
O=C(c1ccc2c(=O)nc3c(-c4ccccc4F)n[nH]n3c2c1)N1CCN(C2CCCCC2)CC1 | i | -1.1
CCCC1([C@@H](O)C/C=C/[C@H]2[C@H](O)CC(=O)[C@@H]2CCCCCCC(=O)O)CCC1 | i | 0.42
O=C(CN(Cc1ccccc1)S(=O)(=O)c1ccc(Cl)cc1)N1CCN(c2ccccc2F)CC1 | i | 1.2
CC1CCN(Cc2cc(=O)n3[nH]c(NCc4ccc(C(C)C)cc4)nc3n2)CC1 | i | -1.2
C=CCn1c(=O)c2cnc(-c3ccc(C)cc3)nc2n(C)c1=O | i | -0.16
O=C(Cn1ncc2c(=O)oc3ccccc3c21)Nc1cccc(Cl)c1 | i | 1.1
Cc1ccc(C)c(S(=O)(=O)Nc2ccccc2-c2ccc3ccccc3n2)c1 | i | 0.57
O=C1NN=C(CN2CCN(c3ccccc3F)CC2)Oc2ccccc21 | i | 0.67
CCOC(=O)c1ccc(NC(=O)Cn2c3ncccc3c(=O)n2-c2ccc(CC)cc2)cc1 | i | -0.12
OC1CCC(Nc2nc(-c3ccccc3)nc3[nH]ccc23)CC1 (stereo unspecified) | i | 0.71
CCCc1nnc(C(=O)Nc2cccc(C(=O)N3CCN(c4ccccn4)CC3)c2)s1 | i | 0.93
Cc1ccc(-c2nnc3c4ccccc4n(Cc4ccccc4)cc2-3)cc1 | i | 0.47
CC(=O)NC1(c2ccccc2)CCNCC1 | i | 0.29
COc1ccccc1NC(=O)Nc1nc(CC(=O)Nc2ccc(Br)cc2F)cs1 | i | 0.19
COc1ccc(NC(=O)C2=C(C)C(=O)OC23CCN(S(C)(=O)=O)CC3)cc1OC | i | -0.25
Cc1ccc(S(=O)(=O)Nc2ccc3nncn3n2)cc1C | i | 0.41

# High-throughput results (PubChem BioAssay)
